TRPML1 agonist – human mucolipin-1 channel agonism | Q9GZU1 | TRPML1-expressing cells, Ca2+ dye fluorescence, FDSS; host cell line not named in the record; reference of the full effect not given here | activation, % (no concentration beside the values) | actives 0.12% (n = 410,000); in the data active = activation above about 50%; inconclusive = about 30% to 50%; inactive = below about 30%; also: 0% is about no effect; the text of the record puts the active cut at 80%
Target sequence (Q9GZU1 whole entry, looked up): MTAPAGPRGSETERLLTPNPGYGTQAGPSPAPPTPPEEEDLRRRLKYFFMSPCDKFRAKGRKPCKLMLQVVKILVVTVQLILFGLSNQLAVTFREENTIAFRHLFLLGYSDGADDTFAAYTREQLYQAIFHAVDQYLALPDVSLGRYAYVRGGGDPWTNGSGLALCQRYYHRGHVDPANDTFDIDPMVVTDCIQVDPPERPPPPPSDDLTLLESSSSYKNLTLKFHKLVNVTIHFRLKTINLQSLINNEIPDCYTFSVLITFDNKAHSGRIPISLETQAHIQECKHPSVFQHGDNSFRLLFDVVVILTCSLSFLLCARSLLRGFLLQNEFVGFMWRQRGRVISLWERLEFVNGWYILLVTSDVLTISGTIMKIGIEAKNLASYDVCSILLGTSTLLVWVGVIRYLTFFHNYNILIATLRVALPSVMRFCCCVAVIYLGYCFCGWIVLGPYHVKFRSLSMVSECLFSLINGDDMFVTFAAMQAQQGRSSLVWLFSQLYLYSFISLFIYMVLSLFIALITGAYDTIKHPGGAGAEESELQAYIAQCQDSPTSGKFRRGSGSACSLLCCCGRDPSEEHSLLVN
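Calcium fluorescence on an FDSS kinetic reader gave the read-out. Tet-induced TRPML1-DL cells were plated overnight, dye-loaded (Ca8 with quencher, 45-90 min, room temperature, dark), then read 110 s after compound addition, and again 110 s after 4uM final 54-4 (EC80).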
PINK1 expr mod – changes PINK1 expression; Potency, µM (top dose mostly 76.6 µM), for the others: top-dose activation (PINK1 increase), usual class: activators; actives 0.2% (n = 410,000); PINK1 immunofluorescence, high-content cytometry, 24 h; AID 624263; active = well fitted activation curve with a large enough effect; inconclusive = small, poorly fitted or top-dose-only effect; inactive = flat fitted curve, though single readings scatter; cell line not stated here;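 also: potency is read from the fitted curve at half-maximal effect; % of control where 0% means no effect; nearly all actives have a fitted effect of over 65% in size; a mitochondrial uncoupler was the plate control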
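Compound titrations (5 concentrations, 24 h) on a stable cell line; DMSO and CCCP controls. Endpoint: fixed-cell PINK1 immunofluorescence with mitochondrial, cell and nuclear markers, scanned by microplate cytometer.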
An asterisk follows results filed as active.

mol | TRPML1 agonist | PINK1 expr mod
COc1ccc(NC(=O)c2cnc(Nc3ccc(C)c(Cl)c3)c3ccccc23)c(OC)c1 | -0.5 | 3.2%
Cc1ncc(CO)c2c1Oc1nc(-c3ccc(F)cc3)nc(SCC(=O)N3CCCCC3)c1C2 | 1.5 | -0.2%
COc1ccc(-c2nc3scc(CCNS(=O)(=O)c4ccc5c(c4)OCCO5)n3n2)cc1OC | 1.6 | 1.3%
COc1ccccc1CNC(=O)CCS(=O)(=O)c1ccc2c(c1)oc(=O)n2C | -0.7 | 3.0%
CCn1c(C(=O)N2CCC(C(=O)NCCc3ccccc3)CC2)cc2sccc21 | -0.1 | 0.0%
COc1ccc(C2c3c(n(C)c4ccccc34)C(=O)N2CC(=O)Nc2cccc(Cl)c2C)cc1 (stereo not drawn) | 0.7 | 2.4%
COC(=O)Cc1c(C)nc2nc(NCc3ccc(Br)cc3)[nH]n2c1=O | -0.4 | 1.7%
CCC(Sc1nnc(C)n2c1cc1occc12)C(=O)Nc1ccccc1OC (stereo not drawn) | 1.3 | 3.1%
Cc1cccc(-n2ccnc2SCC(=O)Nc2ccc(F)cc2F)c1C | 2.6 | -4.5%
COCCNC(=O)CSc1nc(-c2cc(OC)c(OC)c(OC)c2)[nH]c1-c1ccc(Cl)cc1 | 0.5 | 1.1%
Cc1ccc(C)c(NC(=O)c2ccc3c(c2)CCCN3S(C)(=O)=O)c1 | 0.1 | 9.7%
O=C(NCc1ccc(F)cc1)C(=O)NCC(c1ccco1)S(=O)(=O)c1cccs1 (stereo not drawn) | 0.4 | 0.4%
COc1cccc(OCCCCn2c(-c3ccc(Cl)cc3)nc3ccccc3c2=O)c1 | -0.1 | 0.7%
Cc1ccc(NC(=O)CN2C(=O)COc3ccc(S(=O)(=O)N4CCCCCC4)cc32)cc1Cl | -0.5 | 1.3%
Cc1cccc(NC(=O)c2oc3ccccc3c2NC(=O)Cc2coc3cc(C)cc(C)c23)c1 | 0.1 | -1.1%

The final 4 records of the section above come first, to join the parts.
mol | TRPML1 agonist | PINK1 expr mod
O=C(NCc1ccc(F)cc1)C(=O)NCC(c1ccco1)S(=O)(=O)c1cccs1 (stereo not drawn) | 0.4 | 0.4%
COc1cccc(OCCCCn2c(-c3ccc(Cl)cc3)nc3ccccc3c2=O)c1 | -0.1 | 0.7%
Cc1ccc(NC(=O)CN2C(=O)COc3ccc(S(=O)(=O)N4CCCCCC4)cc32)cc1Cl | -0.5 | 1.3%
Cc1cccc(NC(=O)c2oc3ccccc3c2NC(=O)Cc2coc3cc(C)cc(C)c23)c1 | 0.1 | -1.1%
COc1ccc(N2CCN(C(=O)c3nc(SC)ncc3Cl)CC2)cc1 | 0.9 | 1.4%
CCOc1ccc(CNC(=O)c2ccc3c(Cl)c4c(nc3c2)CCCC4)cc1 | -0.6 | 3.1%
O=C(C1CCN(S(=O)(=O)Cc2ccccc2)CC1)N1CCN(c2ccccc2F)CC1 | -1.4 | 0.4%
Cc1ccc(CNC(=O)c2oc3ccc(S(=O)(=O)N4CCC(C)CC4)cc3c2C)cc1 | 0.0 | 0.0%
Cc1ccc(-n2nc(C(=O)N3CCC(C)CC3)c(=O)n(C)c2=O)cc1 | -0.3 | -0.8%
CC1CCN(c2oc(-c3ccc(COc4ccc(Cl)cc4)o3)nc2C#N)CC1 | 0.6 | -0.9%
CCCNC(=O)c1ccc(-c2nc(CS(=O)(=O)c3ccc(C)cc3)c(C)o2)cc1 | -1.5 | 4.8%
CCCN(C(=O)c1cc2ccc3cccnc3c2[nH]1)c1ccc(F)cc1 | 1.6 | 11%
COCc1cc(C)nc2sc(C(=O)Nc3cc(C)ccc3F)c(N)c12 | -0.3 | 2.4%
COc1cc2c(NC3CCN(C)CC3)nc(N3CCCN(C)CC3)nc2cc1OCC1CCCNC1 (stereo not drawn) | -0.5 | -0.6%
Cc1nc(N2C(=O)c3oc4ccccc4c(=O)c3C2c2cccc(OCCC(C)C)c2)sc1C (stereo not drawn) | 0.7 | 4.5%
O=C(CSc1ccnc(=O)[nH]1)NCc1ccc(F)cc1 | 0.2 | -0.1%
Cc1cccc(OCCSc2nc3ccccc3n2CC(=O)N2CCOCC2)c1 | 3.1 | -0.5%
CCCOc1ccc(CN(C(=O)c2cc(=O)c3ccc(C)cc3o2)C2CCS(=O)(=O)C2)cc1 (stereo not drawn) | 4.7 | 3.1%
Fc1ccc(C(NCCc2ccc(Cl)cc2)c2nnc(-c3ccccc3Cl)o2)cc1 (stereo not drawn) | 1.9 | 3.0%

Overlap with the part before: 4 entries; new compounds follow.
mol | TRPML1 agonist | PINK1 expr mod
O=C(CSc1ccnc(=O)[nH]1)NCc1ccc(F)cc1 | 0.2 | -0.1%
Cc1cccc(OCCSc2nc3ccccc3n2CC(=O)N2CCOCC2)c1 | 3.1 | -0.5%
CCCOc1ccc(CN(C(=O)c2cc(=O)c3ccc(C)cc3o2)C2CCS(=O)(=O)C2)cc1 (stereo not drawn) | 4.7 | 3.1%
Fc1ccc(C(NCCc2ccc(Cl)cc2)c2nnc(-c3ccccc3Cl)o2)cc1 (stereo not drawn) | 1.9 | 3.0%
CCOc1ccc(NC(=O)CN2C(=O)c3ccccc3Sc3ccc(C(=O)OC)cc32)cc1 | 4.6 | 2.2%
CCCCCCOc1ccc(C2C(=O)N(C3CCCCC3)CC(=O)N2CCC)cc1 (stereo not drawn) | 20 | 0.5%
COc1ccc(NC(=O)C2=C(C)Nc3ncnn3C2c2ccccn2)cc1 (stereo not drawn) | 2.1 | -3.5%
CCn1ccc2cc(S(=O)(=O)N3CCC(C(=O)NCc4cccc(C)c4)CC3)ccc21 | 1.8 | 1.7%
Cc1ccc(-c2nc3scc(CCNS(=O)(=O)c4ccc(F)c(C)c4)n3n2)cc1 | 3.1 | 2.4%
CC(=O)c1sc(NC(=O)c2c(-c3ccccc3)c(-c3ccccc3)nn(C)c2=O)nc1C | 3.6 | -0.6%
Cc1cc(C)c(NC(=O)CSc2nc(-c3ccc(F)cc3)nc3c2Cc2c(CO)cnc(C)c2O3)c(C)c1 | 0.6 | -0.6%
Cc1cccc(NC(=O)c2sc3nc4c(cc3c2N)CN(C(C)C)CC4)c1 | 0.3 | 1.1%
CCN1CCN(c2ncc3c(n2)CCN(CC(C)C)C3)CC1 | 0.1 | 0.1%
COc1ccc(-n2cc(-c3ccccc3)c3c(SC(C)C(C)=O)ncnc32)cc1 (stereo not drawn) | -0.7 | 8.6%
CC(CNC(=O)c1ccc(CSc2nc3ccncc3n2Cc2cccc(F)c2)cc1)c1ccccc1 (stereo not drawn) | 0.4 | 3.0%
CCn1cc(C(=O)N2CCN(c3cc(C)ccc3C)CC2)c(=O)c2cc(S(=O)(=O)N(C)C3CCCCC3)ccc21 | -0.8 | 0.4%
CC1(c2ccccc2)CC(C)(C)N(C(=O)c2ccccc2Cl)c2ccccc21 (stereo not drawn) | 3.9 | -0.5%
CC(C)C(=O)Nc1cccc(NC2=NS(=O)(=O)c3ccccc32)c1 | 4.5 | 0.1%
COC(=O)c1ccccc1NS(=O)(=O)c1ccc2c(c1)CCCN2C(C)=O | -0.7 | 2.2%
COc1ccc(-n2nnnc2C2CCN(S(=O)(=O)c3ccc(NC(C)=O)cc3)CC2)cc1 | -0.3 | 4.2%
Cc1ccc(S(=O)(=O)c2[nH]c(-c3ccccc3)nc2SCCC(=O)O)cc1 | -0.2 | -0.4%
COc1ccccc1C(=O)Nc1cccc(C(=O)OCc2cc(=O)n3nc(C)sc3n2)c1 | 2.9 | -0.4%
Cc1cc(C)c2c(c1)c(C)cc1nnc(SCC(=O)c3ccc(F)cc3)n12 | 0.7 | -0.5%
COc1cc(NC(=O)c2cc(-c3cccc(Cl)c3)on2)c(OC)cc1Cl | -0.3 | 1.0%
O=c1c2ccccc2n2c(-c3ccc(Cl)cc3)nnc2n1CCc1ccccc1 | 0.2 | -0.8%
Cc1ccc2[nH]c(=O)c3cc(C(=O)N(C)c4ccc(Br)cc4)sc3c2c1 | 0.5 | 4.2%
CCC(C)Sc1oc(-c2ccco2)nc1S(=O)(=O)c1ccc(Cl)cc1 (stereo not drawn) | 0.5 | -0.5%
COc1ccc(-c2cc(C(=O)N3CCN(c4ccccc4OC)CC3)c3cc(C(C)C)ccc3n2)cc1 | 0.0 | 1.8%
COc1cc(OC)c(OC)cc1CNCCSc1nnnn1-c1ccccc1 | -0.6 | -1.1%
COc1ccc(NC(=O)c2ccc(-c3nc(COc4ccccc4)c(C)o3)cc2)cc1 | -0.1 | -0.4%
CC(C)(C)C1CCc2onc(C(=O)Nc3sc4c(c3C#N)CCCC4)c2C1 (stereo not drawn) | -0.7 | 1.3%
COc1ccc(Cc2nnc(C(=O)NCCCN3CCN(c4ccccc4F)CC3)o2)cc1OC | -0.4 | 0.1%
Cc1ccc2[nH]c(=O)c3cc(C(=O)NCc4cccc(Cl)c4)sc3c2c1 | -0.2 | 0.6%
Cn1c(C(=O)NCc2ccc(Cl)cc2)cc2c(=O)n(C)c3ccccc3c21 | -1.0 | 3.6%
CCN(C(=O)CSc1nc2ccccc2n1Cc1ccc(C(=O)OC)cc1)c1ccccc1 | 0.4 | 0.5%
O=C(CSc1ncc2c(n1)-c1ccccc1N(Cc1ccc(F)cc1)S2(=O)=O)c1ccc(Br)cc1 | -0.3 | 0.4%
Cc1ccccc1Nc1c(-c2c(F)cccc2Cl)nc2ccc(Br)cn12 | 0.3 | 7.4%
COc1ccc(-c2noc(CNC(=O)c3ccco3)n2)cc1 | -0.6 | 0.2%
O=C(Nc1ccccc1-c1nc2ccccc2s1)c1ccc(F)cc1 | -0.9 | -1.0%
COC(=O)Cn1c(CN2CCN(c3ccc(OC)cc3)CC2)nc2c1c(=O)[nH]c(=O)n2C | 1.2 | 0.8%
CCOc1cccc(C2c3[nH]c4ccccc4c3CCN2C(=O)CSc2ccccc2)c1 (stereo not drawn) | 0.9 | 6.1%
Cc1ccc(-n2cnc3cc(C(=O)NCCC4=CCCCC4)ccc32)c(C)c1 | 0.6 | 9.1%
Cc1cccc2sc(N(CCCN(C)C)C(=O)COc3ccccc3)nc12 | 0.7 | 1.8%
CCN1CCC(N(Cc2ccc3c(c2)OCO3)C(=O)Nc2cc(Cl)ccc2C(=O)OC)CC1 | 0.4 | 5.0%
CCC(CC)C(=O)Nc1c(C(=O)N2CCN(c3ccccc3F)CC2)oc2ccccc12 | 2.3 | 0.0%
COc1cc(Cl)c(C)cc1NC(=O)CNC(=O)Cn1ccc2ccccc2c1=O | -0.4 | -1.1%
CCc1cnc2c(c1SCC(=O)N1CCC(C)CC1)c(=O)n(C)c(=O)n2C | -0.3 | -0.3%
CCOC(=O)N1CCc2c(sc3c2c(=O)n(Cc2ccccc2)c(=O)n3Cc2ccccc2Cl)C1 | 0.3 | 0.3%
COc1cccc(NC(=O)Cn2c(=O)n(CCc3ccc(OC)c(OC)c3)c(=O)c3ccccc32)c1 | 0.9 | 2.5%

Next part.
SMILES	TRPML1 agonist	PINK1 expr mod
COc1ccc(C)cc1NC(=O)C(=O)NCCc1csc(-c2ccc(C)cc2)n1	2.3	0.4%
Cc1ccc(/C=C/c2onc(C)c2S(=O)(=O)N2CCC(C(=O)N3CCOc4ccc(C)cc43)CC2)cc1	1.1	-0.2%
Cc1ccc(-c2nc(-c3cc4cccc(OCc5cccc(F)c5)c4oc3=O)no2)cc1	-0.2	3.2%
COc1ccccc1N(CC(=O)Nc1ccccc1F)S(C)(=O)=O	-0.9	3.1%
CCN(Cc1ccccc1)C(=O)Cn1c(=O)n(-c2ccc(Cl)cc2)c(=O)c2c(C)c(C(=O)N(C)C)sc21	0.8	1.8%
COc1ccc(CCNC(=O)C(=O)NCC(c2cccs2)S(=O)(=O)c2ccccc2)cc1 (stereo not drawn)	7.3	1.2%
COc1ccccc1-c1noc(CCCC(=O)Nc2cccc(C(F)(F)F)c2)n1	2.8	-0.7%
Cc1nc2nc(SCC(=O)NC3CCC(C)CC3)nn2c(C)c1Cc1ccccc1 (stereo not drawn)	-1.0	2.3%
COc1ccc(C)cc1NS(=O)(=O)c1ccc2c(c1)[C@H]1C=CC[C@H]1[C@@H](c1cccc(Cl)c1)N2	0.2	1.7%
COc1ccc(N2CCN(C(=O)Cc3c(C(=O)O)c(C)cn3C)CC2)cc1	-0.1	0.1%
CN(C)c1ccc(C=C2C(=O)c3ccccc3C2=O)cc1	51*	0.4%
Cc1csc2nc(COC(=O)c3ccc(F)cc3)cc(=O)n12	2.2	-0.5%
CCOC(=O)c1ccc(N2C(=O)c3n[nH]c(-c4cccs4)c3C2c2ccc(O)c(OC)c2)cc1 (stereo not drawn)	0.1	-0.7%
CC1=C(C(=O)OCC2CCCCC2)C(c2cccc(Cl)c2Cl)CC(=O)N1 (stereo not drawn)	-0.3	-0.1%
Cc1nc2ccc(C(=O)OC(C)C(=O)c3c(C)[nH]c4ccccc34)cc2nc1C (stereo not drawn)	-0.9	1.7%
O=S(=O)(Nc1ccc(OC(F)(F)F)cc1)c1ccc(N2CCCCS2(=O)=O)cc1	4.2	-0.4%
O=C(NCC(c1ccco1)S(=O)(=O)c1cccs1)c1ccc(F)cc1 (stereo not drawn)	1.0	2.9%
CC(CNC(=O)Cn1ncc2c3ccccc3n(Cc3cccc(Cl)c3)c2c1=O)c1ccccc1 (stereo not drawn)	-0.6	-0.4%
CCOC(=O)c1cccc(NC(=O)c2ccc3nc(C(C)C)oc3c2)c1	1.3	0.6%

Bioassay records deposited in PubChem BioAssay by National Center for Advancing Translational Sciences (NCATS).

Only part of the results is shown; rates above refer to the full screens.
